FPRL1 binder = ligands of human FPRL1, also counter-screen for FPR ligands; 24,000 compounds, 0.3% hits; FPRL1-expressing cells, fluorescent ligand binding inhibition, flow cytometry; inhibition, %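 (tested at 6.7 µM)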; AID 441;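 note: 0% = buffer alone and 100% = receptor blocker peptide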
Target sequence (P25090 whole entry, looked up): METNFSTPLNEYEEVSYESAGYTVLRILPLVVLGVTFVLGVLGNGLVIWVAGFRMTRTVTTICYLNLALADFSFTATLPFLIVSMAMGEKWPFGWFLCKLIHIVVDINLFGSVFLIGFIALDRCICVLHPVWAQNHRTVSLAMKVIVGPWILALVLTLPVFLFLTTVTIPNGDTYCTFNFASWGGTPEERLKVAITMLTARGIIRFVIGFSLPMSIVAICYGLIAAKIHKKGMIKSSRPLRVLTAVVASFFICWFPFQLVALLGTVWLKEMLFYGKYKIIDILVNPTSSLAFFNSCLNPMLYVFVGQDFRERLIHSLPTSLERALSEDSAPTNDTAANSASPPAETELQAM
VCAM-1 down = inhibitors of TNFa-induced VCAM-1 surface display, cell-based, plate reader, pooled HUVEC, TNFa stimulus (AID 454); 10,000 compounds, 0.2% hits; inhibition, % at 5 µM; HUVEC TNFa-induced VCAM-1 surface immunofluorescence, plate reader; numbers were filed only for top-ranked candidate wells;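 active = compound among top-ranked inhibitors of TNF-induced VCAM-1 adhesion protein staining, with the hit upheld by image or statistical review; inactive = the rest, including hits rejected on review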;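 note: 0% = TNFa with vehicle and 100% = cells without TNFa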
FPR ligand = binds the human formylpeptide receptor FPR; 24,000 compounds, 0.74% hits; inhibition, %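 (tested at 6.7 µM)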; FPR-expressing cells, fluorescent ligand binding, flow cytometry; AID 440;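 note: 0% = buffer wells and 100% = receptor blocker peptide wells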
Target sequence (P21462 whole entry, looked up): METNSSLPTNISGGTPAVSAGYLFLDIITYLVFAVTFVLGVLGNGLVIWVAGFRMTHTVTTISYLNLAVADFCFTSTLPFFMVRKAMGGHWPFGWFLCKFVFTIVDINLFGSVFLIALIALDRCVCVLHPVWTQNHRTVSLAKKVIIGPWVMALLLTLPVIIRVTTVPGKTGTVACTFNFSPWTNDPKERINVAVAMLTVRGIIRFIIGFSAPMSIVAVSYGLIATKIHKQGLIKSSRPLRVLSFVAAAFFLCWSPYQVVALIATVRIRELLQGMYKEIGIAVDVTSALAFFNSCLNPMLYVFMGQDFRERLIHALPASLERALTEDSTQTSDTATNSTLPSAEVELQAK
VCAM-1 imaging = inhibitors of TNFa-induced VCAM-1 surface display, imaging, high-content imaging, pooled HUVEC, TNFa stimulus (AID 456). HUVEC TNFa-induced VCAM-1 surface expression, immunofluorescence imaging; numbers were filed only for top-ranked candidate wells. one-dose inhibition, % at 5 µM; IC50 in µM for titrated hits. 10,000 compounds, 0.2% hits;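 active = top tenth filtered wells with inhibition above zero that passed visual or statistical confirmation; inactive = the rest, including hits rejected on review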;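 note: 0% = stimulated vehicle wells and 100% = unstimulated cells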
VCAM-1 up imaging = boosters of cytokine-driven VCAM-1 levels – imaging, high-content imaging, pooled HUVEC, TNFa stimulus (AID 457); calls only; Pooled HUVEC, TNFa-induced VCAM-1 immunofluorescence imaging; hits of this screen are not shown here; 10,000 compounds, 0.2% hits;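 active = a top-ranked rise in VCAM-1 staining upheld on image or statistical review; inactive = the rest, including candidates rejected on review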;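 note: compounds tested at 5 µM in the well; cells exposed to compound for 24 hours before fixing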
The depositor's hits bear a star; i = inactive; nt = no result given.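 Rule for the calls, unless noted: active = mean above 30%; inconclusive = self-fluorescent; inactive = the rest.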 A portion of the library. The share of hits here may be higher or lower than overall.

SMILES	FPRL1 binder	VCAM-1 down	FPR ligand	VCAM-1 imaging	VCAM-1 up imaging
CCn1c(SCC(N)=O)nc2c1c(=O)n(C)c(=O)n2C	0	i	6	i	i
COc1ccc(N2C(=O)CSC2c2cccc(F)c2)c(OC)c1 (stereo not drawn)	3	nt	10	nt	nt
O=C(NC(=O)c1cccc(F)c1)OC[C@@H]1CCCN2CCCC[C@H]12	3	i	4	i	i
CCOCCn1c(=O)c2c(nc3n2CCN3c2ccc(C)cc2)n(C)c1=O	2	nt	3	nt	nt
O=C(Cn1c(=O)oc2cc(S(=O)(=O)N3CCc4ccccc43)ccc21)N1CCCCC1	1	nt	-2	nt	nt
CCN(CC)C(=O)c1cn(C)c(=O)c2cc(OC)c(OC)cc12	3	nt	2	nt	nt
O=C(CCN1C(=O)COc2ccccc21)NCCN1CCc2ccccc2C1	2	nt	-4	nt	nt
O=C(c1oc(=O)c2ccccc2c1-c1ccccc1)N1CCN(C2CCCCC2)CC1	-2	nt	-2	nt	nt
Cc1ccnc(NC(=O)CN(C)S(=O)(=O)c2cccc3nsnc23)c1	-2	nt	2	nt	nt
COc1cccc(C(c2nnnn2Cc2ccccc2)N2CCN(C(=O)c3ccco3)CC2)c1OC (stereo not drawn)	7	i	-11	i	i
CCOC(=O)CSc1nnc(CNC(=O)c2cccs2)n1-c1cc(C)ccc1C	2	nt	2	nt	nt
Nc1nonc1-c1noc(CCCCCN2C(=O)c3ccccc3C2=O)n1	-8	i	-8	i	i
CCOc1ccccc1OCCCCCc1c(C)n[nH]c1C	-4	nt	-1	nt	nt
CCOC(=O)N1CCC(NC(=O)c2ccc(NC(=O)C3CCCO3)cc2)CC1 (stereo not drawn)	13	nt	-1	nt	nt
O=C(NCc1ccccc1)C1C2C=CC3(CN(Cc4cccnc4)C(=O)C13)O2 (stereo not drawn)	-2	nt	-6	nt	nt
O=C(CCCn1c(=O)c2sccc2n(CC(=O)OCc2ccccc2)c1=O)NCc1ccco1	7	nt	0	nt	nt
CCOC(=O)CC1=C(C(=O)OCC)C(c2ccc(C)o2)C(C#N)=C(N)O1 (stereo not drawn)	0	i	6	i	i
Cc1noc(C(=O)N2CC3(C)CC2CC(C)(C)C3)c1Cl (stereo not drawn)	0	nt	2	nt	nt
CCOC(=O)C1=C(C)Nc2nnnn2C1c1cccc(OC)c1OC (stereo not drawn)	6	nt	2	nt	nt
CCOC(=O)N1CCN(C(=O)C2CCCN(S(=O)(=O)c3cccnc3)C2)CC1 (stereo not drawn)	-2	nt	1	nt	nt
O=C(NCCCN1CCCC1=O)c1cncc(Br)c1	0	i	1	i	i
O=C(c1ccc(N2CCCCS2(=O)=O)cc1)N1CCN(c2ccc(N3CCOCC3)nn2)CC1	2	nt	0	nt	nt
O=S(=O)(NCC(c1cccnc1)N1CCN(c2ccc(F)cc2)CC1)c1ccccc1 (stereo not drawn)	-5	nt	1	nt	nt
COc1ccc(N2C(=O)C3CCCN3C2c2cc(OC)c(OC)cc2OC)cc1 (stereo not drawn)	-2	nt	1	nt	nt
CCc1ccc2[nH]c(=O)c(C(c3nnnn3CC3CCCO3)N3CCN4CCCC4C3)cc2c1 (stereo not drawn)	-1	i	-1	i	i
CC(C)CCOC(=O)C1C2C=CC3(CN(Cc4cccs4)C(=O)C13)O2 (stereo not drawn)	1	nt	-5	nt	nt
O=C(CN1CCCC1)N1CCCc2c1c(=O)oc1ccc(OCc3ccccc3)cc21	6	nt	-6	nt	nt
O=C(NCCN1CCCC1)C1CCN(S(=O)(=O)N2CCC3(CC2)OCCO3)CC1	-5	nt	3	nt	nt
CC(C)NC(=O)CSc1nc2ccccc2n1-c1ccccc1	2	i	-1	i	i
O=C(Nc1nnc(C2CCCCC2)s1)c1cccs1	-6	i	-3	i	i
COc1ccc(Cn2c(=O)[nH]c3cc(C(=O)NCc4ccc5c(c4)OCO5)ccc3c2=O)cc1	7	nt	5	nt	nt
O=S(=O)(c1ccc(Cl)s1)N1CCN(Cc2ccccc2)CC1	6	nt	8	nt	nt
CC1(C)NC(=O)N(CC(O)CN(Cc2ccccc2)Cc2ccccc2)C1=O (stereo not drawn)	1	i	-4	i	i
CC(=O)c1ccc(NC(=O)C2CC(c3ccc(F)cc3)=NO2)cc1 (stereo not drawn)	-2	nt	2	nt	nt
O=C(CC(=O)N1CCN(c2ccccn2)CC1)Nc1ccc2nc3n(c(=O)c2c1)CCCCC3	-4	nt	-2	nt	nt
COc1ccc(CCNC(=O)C2CCN(Cc3nc(-c4cccc(Cl)c4)oc3C)CC2)cc1OC	-1	i	2	76%	i
CCOc1ccc(C2CC(c3cccc(OC)c3)Nc3ncnn32)cc1 (stereo not drawn)	0	nt	-3	nt	nt
Cn1c(=O)[nH]c(=O)c2c1nc(CN(Cc1ccccc1)Cc1ccccc1)n2CCN1CCOCC1	0	nt	-7	nt	nt
CC1=C(C(N)=O)C(c2cccs2)n2nc(-c3cccc(Cl)c3)nc2N1 (stereo not drawn)	-2	nt	-6	nt	nt
O=C(CCn1c(=O)oc2ccccc21)N1CCN(C(c2ccccc2)c2ccccc2)CC1	-3	nt	4	nt	nt

Among those listed so far, these have fluorine.
SMILES	FPRL1 binder	VCAM-1 down	FPR ligand	VCAM-1 imaging	VCAM-1 up imaging
COc1ccc(N2C(=O)CSC2c2cccc(F)c2)c(OC)c1 (stereo not drawn)	3	nt	10	nt	nt
O=C(NC(=O)c1cccc(F)c1)OC[C@@H]1CCCN2CCCC[C@H]12	3	i	4	i	i
O=S(=O)(NCC(c1cccnc1)N1CCN(c2ccc(F)cc2)CC1)c1ccccc1 (stereo not drawn)	-5	nt	1	nt	nt
CC(=O)c1ccc(NC(=O)C2CC(c3ccc(F)cc3)=NO2)cc1 (stereo not drawn)	-2	nt	2	nt	nt

Other structures
SMILES	FPRL1 binder	VCAM-1 down	FPR ligand	VCAM-1 imaging	VCAM-1 up imaging
CCOCc1cc(C)[nH]c(=O)c1C#N	6	nt	4	nt	nt
Cc1cccc(CS(=O)(=O)Cc2ccc(C(=O)NCCCN3CCOCC3)o2)c1	-1	nt	4	nt	nt
Cc1cc(C(=O)NCc2ccc3c(c2)OCO3)n(-c2ccccc2)n1	-3	nt	-7	nt	nt
Cc1oc(-c2ccccc2F)nc1CS(=O)(=O)CC(=O)NCc1ccco1	0	i	-3	i	i
CCN(CC)S(=O)(=O)c1ccc2oc(SCc3ccc(F)cc3)nc2c1	-9	i	1	i	i
O=c1c(CN2CCN(Cc3ccccc3)CC2)coc2ccc(Cl)cc12	-7	i	-2	i	i
O=C(CCn1c(=S)[nH]c2cc3c(cc2c1=O)OCO3)N1CCN(C2CCCCC2)CC1	-2	i	7	i	i
Cc1noc(C)c1S(=O)(=O)N(CC(=O)N1CCn2c1nc1ccccc12)c1ccc(C(C)C)cc1	-1	nt	-5	nt	nt
CCCc1cc(C(=O)Nc2sc3c(c2C(=O)OCC)CCCC3)no1	-1	nt	-3	nt	nt
CN1CCN(C(=O)c2ccc3c(c2)N(Cc2ccc(Cl)cc2)C(=O)c2ccccc2S3=O)CC1 (stereo not drawn)	1	nt	1	nt	nt
CCOc1ccccc1C1C(C#N)=C(N)Oc2n[nH]c(CC)c21 (stereo not drawn)	2	nt	5	nt	nt
OC(CN1CCN(c2ccccn2)CC1)Cn1c2ccccc2c2ccccc21 (stereo not drawn)	1	i	-12	i	i
Cc1ccccc1-c1nc(CN2CCC(C(=O)NCCC3=CCCCC3)CC2)c(C)o1	5	nt	2	nt	nt
Cc1nc2sc(C(c3cccs3)N3CC(C)CC(C)C3)c(O)n2n1 (stereo not drawn)	11	i	5	i	i
O=C(CSc1nc(-c2ccccc2)cs1)NC(=O)NCc1ccco1	-8	i	-1	i	i
CCn1cc(C(=O)Nc2cccc(NC(C)=O)c2)c2cc(OC)c(OC)cc2c1=O	5	nt	4	nt	nt
O=C(CCN1C(=O)c2ccncc2C1=O)NCc1ccc(Cl)cc1	-4	nt	-2	nt	nt
CC1CCC(NC(=O)c2ccc(CS(=O)(=O)Cc3ccccc3F)o2)CC1 (stereo not drawn)	-5	nt	5	nt	nt
COc1cc(NC(=O)Cc2cccs2)ccc1-n1cnnn1	3	i	7	i	i
O=C1CCCN1CN(C(=O)c1ccccc1)c1ccc(F)cc1	1	nt	-2	nt	nt

Shown as labelled records: part of the list above
Cc1oc(-c2ccccc2F)nc1CS(=O)(=O)CC(=O)NCc1ccco1
  FPRL1 binder: 0 | VCAM-1 down: i | FPR ligand: -3 | VCAM-1 imaging: i | VCAM-1 up imaging: i

CCN(CC)S(=O)(=O)c1ccc2oc(SCc3ccc(F)cc3)nc2c1
  FPRL1 binder: -9 | VCAM-1 down: i | FPR ligand: 1 | VCAM-1 imaging: i | VCAM-1 up imaging: i

More structures follow:
SMILES	FPRL1 binder	VCAM-1 down	FPR ligand	VCAM-1 imaging	VCAM-1 up imaging
CN(C)C=Nc1nonc1N	6	i	7	i	i
O=C(Cn1ncc2c1-c1ccccc1OC2)Nc1nc2ccccc2s1	11	nt	9	nt	nt
COc1ccc(CCNS(=O)(=O)c2ccc3oc(C(=O)O)c(C)c3c2)cc1OC	0	i	4	i	i
O=c1oc2ccccc2c2nccnc12	7	i	-2	i	i
O=C(O)CCCc1nc(-c2ccccc2)no1	-1	i	2	i	i
O=c1cc(O)nc(SCc2ccc(Cl)cc2)[nH]1	2	nt	2	nt	nt
CS(=O)(=O)N(CC(=O)NCc1ccncc1)Cc1ccc(Cl)cc1	2	i	17	i	i
O=C(CN(c1ccc(F)cc1)S(=O)(=O)c1ccc2c(c1)OCCO2)Nc1ccc2c(c1)OCO2	-8	i	4	i	i
Cn1c(=O)oc2cc(S(=O)(=O)N3CCC(C(=O)Nc4ccc(OC(F)(F)F)cc4)CC3)ccc21	-2	i	-1	i	i
Cc1onc(-c2c(Cl)cccc2Cl)c1C(N)=O	0	i	-6	i	i
Cc1cc(C)nc(SCCS(=O)Cc2ccc(Cl)cc2)n1 (stereo not drawn)	0	i	-5	i	i
Cc1ccc(NC(=O)c2noc3c2CCCCC3)cc1	4	nt	0	nt	nt
CC(=O)NCCOc1cccc(OCCNC(C)=O)c1	1	i	-4	i	i
O=C(Nc1ccc(NC(=O)C2CCCN2C(=O)OCc2ccccc2)cc1)c1ccco1 (stereo not drawn)	0	nt	3	nt	nt
O=C(CN(c1ccc(F)cc1)S(=O)(=O)c1ccc2c(c1)OCCO2)Nc1cccnc1	-6	i	-2	i	i
O=C1C2CCCN2C(c2ccc(F)c(F)c2)N1c1cccc(Cl)c1 (stereo not drawn)	1	nt	-3	nt	nt
Cc1nn(CCCC(=O)N2CCc3ccccc3C2)c(=O)c2cc3sccc3n12	12	nt	1	nt	nt
O=C(c1cccc2ccccc12)N1CCC(N2CCN(c3ccccc3)CC2)CC1	-3	i	-6	i	i
CS(=O)(=O)n1nc(OC(=O)c2cccc3ccccc23)cc1N	2	nt	-3	nt	nt
CCc1nnc(NC(=O)CSc2nc(-c3ccc(OC)cc3)ns2)s1	2	i	-5	i	i
O=C(c1ccc(COc2ccccc2Cl)o1)N1CCN(c2ccccc2)CC1	-2	nt	1	nt	nt
COc1ccc(CCNc2oc(-c3ccccc3OC)nc2C#N)cc1	0	i	2	i	i
c1ccc2cc3[nH]c(CN4CCCCC4)nc3cc2c1	1	nt	-5	nt	nt
O=C(Nc1nccs1)C1CCCN(S(=O)(=O)c2cccc3cccnc23)C1 (stereo not drawn)	12	nt	9	nt	nt
O=C1C(=O)N(CCCn2ccnc2)C(c2cccnc2)/C1=C(/O)c1ccc(Br)cc1 (stereo not drawn)	-1	nt	3	nt	nt
CCOC(=O)c1sc2cccc(F)c2c1N	2	i	4	i	i
COc1ccc(C2C(C(=O)Nc3cc(C)on3)c3ccccc3C(=O)N2C)cc1 (stereo not drawn)	5	nt	2	nt	nt
CN(CCCn1c(=S)[nH]c2ncccc2c1=O)Cc1ccccc1	1	nt	-16	nt	nt
COc1cc(Nc2cc(C)nc3nc(C)nn23)cc(OC)c1OC	-5	nt	-1	nt	nt
CCCc1nc2ccccc2c2nc(N)nn12	18	i	29	i	i
CC(C)n1nnnc1SCC(=O)Nc1ccccc1N1CCOCC1	1	i	1	i	i
Cc1ccc2c(c1)NC(=O)C(CC(=O)NCCN(C)C)O2 (stereo not drawn)	0	nt	1	nt	nt
CC(C)(C)c1ccc(S(=O)(=O)N2CCCCC2C(=O)NCc2ccccn2)cc1 (stereo not drawn)	-5	nt	2	nt	nt
CC1CCN(C(=O)C2CCCN(S(C)(=O)=O)C2)CC1 (stereo not drawn)	4	nt	-4	nt	nt
COc1ccc(C2N(c3cccc(Cl)c3)C(=O)C3CCCN32)cc1 (stereo not drawn)	-2	nt	2	nt	nt
Cc1cc(C(=O)Nc2sc3c(c2C#N)CCCCC3)cs1	-9	i	-8	i	i
COc1cccc(Cn2nnc(C(=O)NCc3ccc(F)cc3)c2N)c1	5	nt	-4	nt	nt
COc1ccc(C2CC(c3ccc(Cl)cc3Cl)n3nc(N)nc3N2)cc1 (stereo not drawn)	-6	i	-2	i	i
